# RE007 growth inh = less growth of the S. pombe RE007 Vpr strain | Potency, µM (doses to about 92.2 µM), without a hit: top-dose activity change, negative = less growth | S. pombe RE007 Vpr strain, BacTiter-Glo ATP luminescence, 24 h; control for the full effect not named in the record | actives 0.21% (n = 360,000); active = well fitted falling curve with a large enough effect; inconclusive = small, poorly fitted or top-dose-only effect; inactive = no such curve, though single readings can be large or run the other way;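 note: % is set by controls: 0 for no effect and ±100 for the full control effect; nearly all actives have a fitted effect of over 50% in size; the assay follows cell death caused by Vpr and the record does not say whether a fall means rescue or toxicity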
#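 Fission yeast RE007 carrying one integrated HIV-1 vpr copy, seeded at OD 0.01 in PMG+AL medium with 23 nL pinned compound. Grown 24 h at 30 degrees; viability read by BacTiter-Glo luminescence after 5 min.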
# SARS PLP yeast = blocks SARS-CoV papain-like protease in a yeast assay | S. cerevisiae expressing SARS-CoV PLpro, growth rescue; control for the full effect not named in the record | Potency, µM (titrated, usually from 32.9 µM), inactives show at the highest dose activity, positive = growth rescue | actives 0.19% (n = 330,000); note: 0% is about no effect; nearly all actives have a fitted effect of over 55% in size; growth read by luminescence after 48 h
# NS1 inh = influenza NS1 inhibition; AID 2326; actives 0.4% (n = 270,000); S. cerevisiae slowed by influenza A NS1, growth recovery by OD600; Potency, µM (highest dose often 46.1 µM), for the others: at the top dose activity, positive = more growth; note: actives are rising curves; nearly all actives have a fitted effect of over 50% in size
#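 Read-out: OD600 growth recovery of NS1-expressing budding yeast. Cells grown overnight at 30C in -URA glucose medium, washed, resuspended and diluted 1:100 in 2% galactose assay medium, pH 6.0. Same strain lacking NS1 served as positive control.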
# Cruzain inh noDet = inhibitors of Trypanosoma cruzi cruzain without detergent; actives 2.3% (n = 200,000); purified cruzain, Z-FR-AMC fluorescence, no detergent; AID 1476; Potency, µM, inactives show max response, negative = inhibition, hits mostly inhibitors; active = well fitted curve in the direction sought with a large enough effect; inconclusive = small, poorly fitted or top-dose-only effect, or another doubt; inactive = no such curve, though single readings can be large; an effect the other way counts as inactive or inconclusive;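 note: plate controls were enzyme without inhibitor for no effect and buffer without enzyme for full effect; nearly all actives have a fitted effect of over 40% in size; top concentration of the series not given in the record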
# Target sequence (P25779 123-467 limits assumed): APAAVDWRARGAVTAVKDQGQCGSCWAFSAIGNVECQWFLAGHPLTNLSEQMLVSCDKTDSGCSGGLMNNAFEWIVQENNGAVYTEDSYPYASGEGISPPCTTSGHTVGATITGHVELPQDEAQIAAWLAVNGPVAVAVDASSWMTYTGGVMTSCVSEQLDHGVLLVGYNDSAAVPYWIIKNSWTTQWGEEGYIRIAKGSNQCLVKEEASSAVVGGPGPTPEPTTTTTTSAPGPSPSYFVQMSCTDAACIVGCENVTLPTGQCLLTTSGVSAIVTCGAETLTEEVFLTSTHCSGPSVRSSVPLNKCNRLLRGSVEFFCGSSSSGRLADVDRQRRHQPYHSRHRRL
#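 Purified cruzain at 1.5 nM, pre-incubated 15 min with compound at room temperature in 100 mM sodium acetate pH 5.5, 5 mM DTT, 0.00005% Triton X-100. Reaction started with 2 uM Z-FR-AMC; AMC fluorescence increase over 60 s gives rate.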
# MARV entry inh = Marburg virus entry inhibition; actives 1.8% (n = 300,000); Marburg virus pseudotyped entry inhibition, cell reporter; control for the full effect not named in the record; about a third of the inactives were read at about 46 µM; Potency, µM (titrated, usually from 37.8 µM), inactives show top-dose activity change, negative = inhibition, most hits filed as inhibitors; AID 540276; active = well fitted inhibition curve with a large enough effect; inconclusive = small, poorly fitted or top-dose-only effect, or effect the other way; inactive = flat fitted curve, though single readings scatter; tested in HEK293 cells; about a fifth of its hits are not listed in these tables; note: % is set by controls: 0 for no effect and ±100 for the full control effect; luciferase read-out
# LASV entry inh = inhibitors of Lassa virus binding or cell entry. Lassa virus pseudotype entry inhibition, cell reporter; control for the full effect not named in the record. Potency, µM (highest dose often 37.9 µM), without a hit: top-dose activity change, negative = inhibition, most hits filed as inhibitors. actives 1.2% (n = 300,000); active means well fitted inhibition curve with a large enough effect; inconclusive means small, poorly fitted or top-dose-only effect, or effect the other way; inactive means flat fitted curve, though single readings scatter; tested in HEK293 cells; note: % is set by controls: 0 for no effect and ±100 for the full control effect; nearly all actives have a fitted effect of over 50% in size; luciferase read-out
# 2A StopGo = lowers the luciferase signal of an FMDV 2A StopGo reporter; Potency, µM (series often up to 57.9 µM), without a hit: at the highest dose signal change, negative = less light; actives 1.2% (n = 410,000); AID 1159524; human cells with a luciferase reporter of 2A StopGo recoding; control for the full effect not named in the record; active = well fitted falling curve with a large enough effect; inconclusive = small, poorly fitted or top-dose-only effect; inactive = no such curve, though single readings can be large or run the other way; tested in HEK293T cells; note: % is set by controls: 0 for no effect and ±100 for the full control effect; nearly all actives have a fitted effect of over 45% in size; luciferase light after 4 h
# Cruzain Triton = inhibitors of Trypanosoma cruzi cruzain with detergent | AID 1478 | purified cruzain, Z-FR-AMC fluorescence, 0.01% Triton | actives 0.43% (n = 200,000) | Potency, µM, for inactives: max response, negative = inhibition, hits mostly inhibitors; active = well fitted curve in the direction sought with a large enough effect; inconclusive = small, poorly fitted or top-dose-only effect, or another doubt; inactive = no such curve, though single readings can be large; an effect the other way counts as inactive or inconclusive;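 note: plate controls were neutral wells for no effect and buffer without enzyme for full effect; nearly all actives have a fitted effect of over 40% in size; top concentration of the series not given in the record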
#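 Detergent-containing run (0.01% Triton X-100) in acetate buffer pH 5.5 with 5 mM DTT: enzyme at 1.5 nM final, 15 min compound preincubation at room temperature, then 2 uM Z-FR-AMC substrate. Activity taken as 60 s fluorescence increase at 360/450 nm.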
# Numbers without * were called inactive; ? = inconclusive; nt = not tested or not shown; & = joins results of further samples; [ ] = dose if it differs, or a comment. Unless noted, calls come from the whole dose curve; as a rule, active means well fitted rising curve with a large enough effect; inconclusive means small, poorly fitted or top-dose-only effect; inactive means no such curve, though single readings can be large or run the other way. Potency is the fitted concentration of half-maximal effect.
No.	canonical_smiles	RE007 growth inh	SARS PLP yeast	NS1 inh	Cruzain inh noDet	MARV entry inh	LASV entry inh	2A StopGo	Cruzain Triton
1	Cc1ccc(-c2c(C(=O)N/N=C/c3cccs3)nnn2-c2nonc2N)cc1	3%	4%	11%	nt	nt	nt	-13%	nt
2	O=C(NC(Cc1ccccc1)C(=O)N1CCCCC1)c1ccccc1 (stereo not drawn)	1%	2%	nt	nt	5%	?	6%	nt
3	O=C(Nc1ccccc1Cl)OCc1cncs1	-11%	0%	-4%	nt	nt	nt	54%[activator]	nt
4	N#Cc1c(N)n(CCNC(=O)c2cccs2)c2nc3ccccc3nc12	2%	1%	-8%	?	-2%	-13%	-12%	-17%
5	Cn1c(=O)[nH]c(=O)c2c1nc(N1CCOCC1)n2Cc1ccccc1	nt	nt	nt	1%	nt	5%[46.1 µM]	-11%	-2.4%
6	NC1CCN(c2c(F)cc3c(=O)c(C(=O)O)cn(C4CC4)c3c2Cl)C1 (stereo not drawn)	-14%	-2%	-4%	nt	nt	nt	-11%	nt
7	CCC(C(=O)NC1CCCC1)N(C(=O)Cn1nnc(-c2ccc(C)o2)n1)c1cccc(OC)c1 (stereo not drawn)	-6%	14%	-8%	nt	4%[46.1 µM]	?	10%	nt
8	CCOc1cc2[nH]c(=O)n(CCC(=O)NCCc3ccccc3)c(=O)c2cc1OCC	16%	8%	-4%	11%	6%	21%	8%	4.7%
9	CN1CCN(S(=O)(=O)c2ccc(NC(=S)NC(=O)C3CCCC3)cc2)CC1	-4%	-8%	nt	nt	?	-27%	61%[activator]	nt
10	Cc1cccc(Nc2nc(N)nc(CN3CCN(C)CC3)n2)c1	-2%	15%	-5%	-6%	-8%	6%	9%	1.0%
11	CCCn1c(SCC(=O)NC)nnc1C(C)C	14%	6%	-9%	-5%	27%[46.1 µM]	?	20%	4.6%
12	C/C(=N/NC(=O)c1ccc(Cn2cccn2)o1)c1cccc(NC(=O)c2ccncc2)c1	-1%	-11%	-20%	nt	nt	nt	-15%	nt
13	CCOc1nc(-c2ccccc2O)nc2ccccc12	-20%	-11%	-9%	-10%	3%	2%	nt	0.8%
14	COc1ccc(CNC(=O)Cc2ccc(NC(=O)C3=C(C)OCCS3)cc2)cc1	-5%	2%	13%	nt	nt	nt	24%	nt
15	Cc1nn2c(-c3ccc(F)cc3)ccnc2c1Cl	-2%	-3%	-6%	nt	-5%	?	5%	nt
16	CCCCCCSc1nnc(N)s1	0%	-3%	-10%	nt	-23%[46.1 µM]	2%	8%	nt
17	O=C(CN(C1CCCCC1)S(=O)(=O)c1ccccc1)N1CCCC1	9%	4%	13%	3%	5%	16%	24%	1.7%
18	O=C(COC(=O)c1ccccc1Oc1ccccc1)NC1CCS(=O)(=O)C1 (stereo not drawn)	12%	2%	-3%	3%	-1%	5%	-4%	3.1%
19	COc1ccccc1-c1nc(S(=O)(=O)c2ccc(Cl)cc2)c(N(C)C)o1	2%	1%	7%	-5%	?	-4%	nt	-1.7%
20	Cc1cc(-c2n[nH]c(=S)n2Cc2ccco2)nn1C	21%	20%	6%	-9%	?	0%	-9%	4.9%
21	Cc1cc(C)cc(N(C(=O)C2CCCC2)C2C=CS(=O)(=O)C2)c1 (stereo not drawn)	-10%	2%	-2%	3%	11%	-2%	nt	2.8%
22	Cc1ccc(C)c(S(=O)(=O)Nc2cc(SCC(=O)O)c(O)c3ccccc23)c1	-30%	-22%	-26%	-5%	?	?	?	-11%
23	O=c1c(-c2cccc3ccccc23)[n+]([O-])c2ccccc2n1O	21%	-12%	-11%	-12%	-1%[46.1 µM]	-8%	-4%	-5.3%
24	CN(C)CCCN(C(=O)c1ccc(S(=O)(=O)N(C)C2CCCCC2)cc1)c1nc2ccc(F)cc2s1	6%	-1%	-30%	nt	?	?	-20%	nt
25	CCN1CCN(C(=O)c2nn(-c3ccccc3)c(=O)c3ccccc23)CC1	2%	5%	-1%	-3%	9%	-16%[14.3 µM]	-13%	0.7%
26	COc1ccc(-c2ccc(=O)n(Cc3ccccc3)n2)cc1	-5%	-4%	2%	nt	nt	nt	18%	nt
27	Cc1cccc(NC(=O)C2CCCN(S(=O)(=O)c3ccc(Br)s3)C2)c1 (stereo not drawn)	nt	nt	nt	?	?	-1%[46.1 µM]	-3%	-7.3%
28	COC(=O)C1Sc2[nH]c(=O)sc2C2c3ccccc3OC(=O)C12 (stereo not drawn)	-19%[3.69 µM]	1%	8%	-6%	10%	-1%	-7%	0.6%
29	Cn1nccc1C(=O)N1CCN(c2cccc(C(F)(F)F)c2)CC1	-6%	-1%	5%	nt	7%[46.1 µM]	14%[46.1 µM]	?	nt
30	Cc1nccn1CC(O)COc1ccc(Cl)cc1Cl (stereo not drawn)	-2%	1%	5%	nt	-6%[46.1 µM]	17%[46.1 µM]	0.45µM*	nt
31	COc1ccc(N2CCN(C(CNC(=O)C(=O)NCc3ccc(F)cc3)c3cccnc3)CC2)cc1 (stereo not drawn)	nt	nt	nt	15%	nt	?	?	-9.7%
32	CC1=CC(=O)C(C(C)C)=C/C1=N\OC(=O)c1cccc2nc(C)oc12	-15%	2%	-2%	-4%	3%	8%	?	2.9%
33	C=CCc1cccc2cc(C(=O)N3CCN(C(=O)c4ccccc4)CC3)c(=O)oc12	-22%	0%	14%	nt	2%[46.1 µM]	nt	12%	nt
34	O=[N+]([O-])c1cc(S(=O)(=O)N2CCCC2)ccc1N/N=C1/CCCc2ccccc21	8%	3%	2%	16µM*	7%	12%	-17%	-6.5%
35	CCOC(=O)CC1C(=O)NCCN1c1nc2ccc(C)cn2c(=O)c1/C=C1\SC(=S)N(CC(C)C)C1=O (stereo not drawn)	17%	1%	1%	nt	-4%[46.1 µM]	1%	-17%	nt
36	CCc1cccc(NC(=O)Cn2cccc2)c1	12%	6%	-11%	9%	0%	1%	71%[activator]	3.9%
37	O=C(COC(=O)CNS(=O)(=O)c1ccc(Br)cc1Cl)NCCc1ccccc1	0%	?	3%	nt	4%	?	-4%	nt
38	COc1cc2nc(Nc3ccc(C)c(Cl)c3)nc(N)c2cc1OC	4%	-10%	-3%	nt	?	?	-11%	nt
39	Fc1ccccc1-c1nc(-c2ccccc2)oc1NC1CCCCC1	nt	nt	nt	-8%	4%&4%[14.2 µM]	-31%[14.3 µM]	nt	3.7%
40	CC(=O)Nc1cccc(C(=O)OCc2ccc([N+](=O)[O-])cc2)c1	-18%	-2%	-3%	nt	nt	nt	-19%	nt

# An excerpt taken from the entries so far, for reference:
No.	canonical_smiles	RE007 growth inh	SARS PLP yeast	NS1 inh	Cruzain inh noDet	MARV entry inh	LASV entry inh	2A StopGo	Cruzain Triton
35	CCOC(=O)CC1C(=O)NCCN1c1nc2ccc(C)cn2c(=O)c1/C=C1\SC(=S)N(CC(C)C)C1=O (stereo not drawn)	17%	1%	1%	nt	-4%[46.1 µM]	1%	-17%	nt
36	CCc1cccc(NC(=O)Cn2cccc2)c1	12%	6%	-11%	9%	0%	1%	71%[activator]	3.9%

# Remaining list, next part
No.	canonical_smiles	RE007 growth inh	SARS PLP yeast	NS1 inh	Cruzain inh noDet	MARV entry inh	LASV entry inh	2A StopGo	Cruzain Triton
41	Cc1ccc(CNC(=O)c2c(C)cc(=O)oc2C)cc1	-6%	3%	-7%	0%	4%	1%	-10%	-2.5%
42	O=S(=O)(NCCS(=O)(=O)N1CCN(c2ccccc2F)CC1)c1ccc(Cl)cc1	nt	nt	nt	8%	nt	-11%[46.1 µM]	-4%	-2.1%
43	COc1cc(/C=N/N2C(=O)CSC2=S)cc(Br)c1O	?	4%	-5%	nt	-11%	16µM*	-12%	nt
44	O=C(NCCCN1CCOCC1)c1cc(-c2ccc(Br)cc2)nc2ccccc12	2%	-4%	nt	nt	?	-21%	-22%	nt
45	COc1ccc(N(CC(=O)N2CCCC2)S(C)(=O)=O)cc1	-2%	-2%	2%	nt	5%	30%	-12%	nt
46	O=Cc1ccc(-c2ccccc2C(=O)O)o1	-12%	0%	0%	nt	10%[46.1 µM]	10%	6%	nt
47	Cn1c(SCc2cccc3ccccc23)nnc1-c1ccco1	-25%	-24%	-63%	-8%	1%	2%	-8%	-1.0%
48	CCOC(=O)Cn1c(=O)oc2cc(S(=O)(=O)N3CCN(c4ccccn4)CC3)ccc21	0%	-2%	3%	-7%	0%	nt	-7%	4.1%
49	O=C(c1ccc(Br)o1)N(c1ccccn1)C1CCCCC1	7%	11%	-15%	-1%	6%	?	-8%	4.4%
50	CSc1nnc(-c2ccc(O)cc2)n1C	-12%	-1%	1%	-3%	3%	56%[14.3 µM]	17%	5.5%
51	CCc1cc(=O)oc2cc(OCC(=O)O)c(Cl)cc12	0%	-1%	1%	-5%	-3%	4%	-22%	-4.5%
52	CC(C)n1cc(CN2CCC(Oc3ccc(C(=O)N4CCCCC4)cc3)CC2)cn1	3%	-3%	5%	nt	-29%	12%	-17%	nt
53	O=C(CSc1nnc(-c2cccs2)n1-c1ccccc1)N1CCN(C(=O)c2ccco2)CC1	nt	-5%	-5%	8%	nt	nt	nt	3.5%
54	Cc1ccccc1-c1csc(N)n1	-22%	nt	nt	nt	5%[46.1 µM]	-63%[46.1 µM]	29%	nt
55	CCN(CC(=O)Nc1cc(Cl)ccc1C)C(=O)CSCc1ccccc1	-6%	3%	nt	nt	-23%	-19%	-10%	nt
56	CC1CCN(c2ccc3nnc(CCC(=O)N4CCN(c5ccc(F)cc5)CC4)n3n2)CC1	2%	?	-8%	nt	-15%[46.1 µM]	-19%[46.1 µM]	-16%	nt
57	COc1cccc(CNC(=O)C2CCN(S(=O)(=O)c3cnc[nH]3)CC2)c1	-4%	1%	6%	-2%	1%[46.1 µM]	10%	-17%	5.5%
58	CSc1ncccc1C(=O)NCc1ccc(C)cc1	10%	9%	7%	8%	13%	12%	3%	3.0%
59	CC12CCC(=O)CC1CCC1C2C(=O)CC2(C)C1CCC2(C)O (stereo not drawn)	-13%	nt	nt	nt	13%[46.1 µM]	-16%[46.1 µM]	-16%	nt

# Source: PubChem BioAssay
